# VACV Venus inh: inhibitors of vaccinia virus (Venus reporter); Vaccinia virus Venus reporter expression, fluorescence; Potency, µM (highest dose often 36.5 µM), inactives show at the top dose activity change, negative = inhibition, hits mostly inhibitors; 330,000 compounds, 0.46% hits; AID 720580; active means well fitted inhibition curve with a large enough effect; inconclusive means small, poorly fitted or top-dose-only effect; inactive means no such curve, though single readings can be large or run the other way; tested in A549 cells; further: nearly all actives have a fitted effect of over 30% in size; inactives centre near -10
# Vaccinia mCherry: vaccinia inhibition (mCherry reporter); 310,000 compounds, 0.63% hits; Potency, µM (series often up to 36.5 µM), for inactives: top-dose activity change, negative = inhibition, actives largely listed as inhibitors; Vaccinia virus mCherry reporter infection, fluorescence; about a quarter of the inactives have no number; AID 720579; active = well fitted inhibition curve with a large enough effect; inconclusive = small, poorly fitted or top-dose-only effect; inactive = no such curve, though single readings can be large or run the other way; tested in A549 cells; further: nearly all actives have a fitted effect of over 35% in size; inactives centre near -10
# The depositor's hits bear a star; i = inactive; ? = inconclusive; . = no result given; & = joins results of further samples; [ ] = remark or other dose. On the % scale 0 is the no-effect control and ±100 the full control effect; potency means the concentration at half of the fitted maximal effect.
# Start of the listing, in advance, 2 compounds:
no.	SMILES	VACV Venus inh	Vaccinia mCherry
1	Cc1ccc(-n2ncc3c2CC(C)(C)CC3NC(=O)CCc2ccncc2)cc1 (stereo not given)	-23%	-1%
2	COc1ccc2[nH]cc(CCNC(=S)NCCc3ccccc3)c2c1	-23%	?

# All compounds of this part, previewed entries included:
no.	SMILES	VACV Venus inh	Vaccinia mCherry
1	Cc1ccc(-n2ncc3c2CC(C)(C)CC3NC(=O)CCc2ccncc2)cc1 (stereo not given)	-23%	-1%
2	COc1ccc2[nH]cc(CCNC(=S)NCCc3ccccc3)c2c1	-23%	?
3	COc1ccc(OC)c(C2CC(=O)Nc3ccc4ccccc4c32)c1 (stereo not given)	-9%	-7%
4	O=C(CSc1ccccc1)Nc1ccc(C(=O)Nc2ccc(O)cc2)cc1	1%	-15%
5	COc1cc(C(=O)NC2Cc3ccccc3C2)ccc1OC1CCN(C(C)=O)CC1	-3%	i
6	O=C(NC1CCOCC1)C1CCC(=O)N(Cc2ccc(Cl)cc2)C1 (stereo not given)	-17%	-5%
7	O=C(COC(=O)C1CCC1)NCc1ccc(F)cc1	-2%	-11%
8	Cc1oc(-c2ccc(C(=O)NCc3ccc(N(C)C)cc3)cc2)nc1COc1ccccc1	-13%	-14%
9	Cc1cc(C)cc(-n2c(SC(C)C(=O)NCc3ccc4c(c3)OCO4)nc3ccccc3c2=O)c1 (stereo not given)	-11%	-8%
10	CCn1c(=O)c2c(nc3n2CCN3c2ccc(OC)cc2)n(C)c1=O	2%	-20%
11	CC1(C)C(=O)N(CCN2CCC(C(=O)c3ccc(F)cc3)CC2)c2ccccc21	-16%	i
12	COc1ccccc1/C=C/C(=O)OCC(=O)NCCC1=CCCCC1	-1%	i
13	CCCCNC(=O)CSc1nc2nc(C)c(Cc3ccccc3C)c(C)n2n1	-18%	-12%
14	O=C(COn1nnc2ccccc21)N1CCN(Cc2ccccc2)CC1	-16%	-19%
15	C#CCN(C[C@@H]1[C@@H](OC(=O)NCc2ccc(OC)c(OC)c2)[C@@H](OC(=O)NCc2ccc(OC)c(OC)c2)Cn2c(=O)n(CCCCCC)c(=O)n21)S(=O)(=O)c1ccc(C)cc1	-26%	-10%
16	Cc1ccc2c(c1)P(=O)(O)c1cc(C)ccc1O2	2%	-15%
17	COCCN(CCOC)S(=O)(=O)c1ccc(C(=O)Nc2sc3c(c2C(=O)OC)CCN(C)C3)cc1	0%	-6%
18	Cc1cc(-c2nc3ncccc3o2)ccc1NC(=O)COc1ccc(C(C)(C)C)cc1	-11%	-23%
19	CCC(CC)C(=O)N1CCc2cc(OC)c(OC)cc2C1COc1ccc(F)cc1 (stereo not given)	-7%	-3%
20	CCc1ccc(/C=C/C(=O)C2C(=O)c3ccccc3C2=O)cc1	1%	4%
21	COc1ccc(CCNC(=O)C2CCCN(c3nc(C)cc(C)n3)C2)cc1 (stereo not given)	-6%	-10%
22	CS(=O)(=O)N(CC(=O)NCC1CCCO1)c1cccc([N+](=O)[O-])c1 (stereo not given)	-5%	-7%
23	CCCc1nc2ccccc2c(=O)n1/N=C/c1c(C)[nH]n(-c2ccc(C)cc2)c1=O	10%	.
24	C[C@H](CO)N1C[C@H](C)[C@@H](CN(C)Cc2ccc(C(=O)O)cc2)Oc2c(NC(=O)c3ccncc3)cccc2C1=O	-9%	i
25	CCN1C(=O)N[C@@H](c2cccs2)C(C(C)=O)=C1C	-7%	-3%
26	O=[N+]([O-])c1ccc(Cl)c(/C=N/N2CCN(C3c4ccccc4-c4ccccc43)CC2)c1	28%	-1%
27	CC(=O)Nc1c(-c2ccc(C)cc2)nc2ccc(Cl)cn12	-1%	12%
28	CC(=O)Nc1ccc(NC(=O)c2csc([C@@H]3C[C@H](O)[C@@H](CO)O3)n2)cc1	7%	31%[activator]
29	COC(=O)c1ccc(CNC(=O)c2ccc(COc3ccccc3)cc2)cc1	3%	-9%
30	O=C(CN1CCN(c2cccc(C(F)(F)F)c2)CC1)Nc1ccc2c(c1)OCCCO2	-21%	-13%
31	COC(=O)c1ccc(C2=NOC(C)(c3nnc(-c4cccc(Cl)c4)o3)C2)cc1 (stereo not given)	-19%	i
32	O=C(Cc1ccc([N+](=O)[O-])cc1)Nc1ccc(C(=O)N2CCOCC2)cc1	-5%	i
33	NC(=O)C1CNc2ccccc2O1 (stereo not given)	-19%	.
34	COCCCNC(=O)Cn1cc(/C=C(\C#N)C(=O)N2CCN(c3ccccc3)CC2)c2ccccc21	-12%	-3%
35	CCN(c1ccccc1C)S(=O)(=O)c1ccc(N2CCCCS2(=O)=O)cc1	-8%	-11%
36	CCN(CC)CC(=O)c1c[nH]c2ccc(OC)cc12	-7%	i
37	CC(=O)C[C@H](O)CC(=O)[C@H]1OC(=O)[C@@H](C)C/C=C\Cc2ccccc21	0%	-5%
38	Cc1ccccc1C(=O)NNC(=O)C1CC(=O)N(Cc2ccccc2)C1 (stereo not given)	-2%	-8%
39	COc1ccc(C2C(C(=O)c3cccs3)=C(O)C(=O)N2Cc2cccnc2)cc1OC (stereo not given)	-10%	9%
40	O=C(CSC1=NCCS1)N1CCOCC1	-14%	-16%
41	Cc1cc(=O)[nH]c(SCC(=O)NC2CCCCCCC2)n1	-3%	i
42	O=C(Cc1csc(-c2cccc(Cl)c2)n1)Nc1cccc(S(=O)(=O)NC2=NCCC2)c1	-27%	-18%
43	O=C(Nc1ccc(F)c(Cl)c1)N1CCC(CN2CCOCC2)CC1	-14%	-14%
44	COc1ccc(N2C(=O)C3CCCN3C2c2cccc(OC)c2)cc1 (stereo not given)	6%	3%
45	Cc1cccc(S(=O)Cc2ccc(C(=O)NC3CCN(Cc4ccccc4)CC3)o2)c1 (stereo not given)	-4%[7.34 µM]	-15%[7.34 µM]
46	Cc1noc(C)c1COc1ccccc1C(=O)NCCOc1ccccc1	-13%	i
47	NS(=O)(=O)c1ccc(NC(=O)c2ccc(S(=O)(=O)N3CCc4ccccc43)cc2)cc1	?	?
48	CCOc1ccc2nc(NCCNC(=O)C(C)(C)C)c(C)cc2c1	-11%	-16%
49	O=C(CN1CCN(Cc2ccc(F)cc2)C1=O)NCc1ccc(F)cc1	-8%	i
50	COc1ccc(-n2nnc3c(=O)n(Cc4cccc(C)c4)cnc32)cc1	-13%	-14%
51	CC1(C)CC(=O)C(C(=O)/C=C/NCCc2ccccc2)C(=O)C1	7%	.
52	COc1ccc(CNC(=O)c2c(C)cc(=O)oc2C)cc1OC	-2%	.
53	CCC(C)(C)n1nnnc1C(c1cc2cc(C)cc(C)c2[nH]c1=O)N1CCN(Cc2ccc3c(c2)OCO3)CC1 (stereo not given)	-12%	-10%
54	O=c1[nH]cc([N+](=O)[O-])cc1Br	-8%	-14%
55	COC(=O)c1cc2oc(C)cc2n1Cc1cccc(Cl)c1	-16%	-17%
56	Cc1cc(NC(=S)N(Cc2ccc(Br)cc2)Cc2ccc(C(=O)O)cc2)ccc1Cl	-2%	-1%
57	CN(CC#CC1(O)c2ccccc2-c2ccccc21)Cc1ccccc1	-10%	-16%
58	Cc1c(C(=O)NCc2ccccc2Cl)cccc1-n1cnc2cccnc21	-4%	-11%
59	CC(=O)Nc1cccc(-c2nc3ccccc3c(=O)o2)c1	-18%	i
60	COc1ccc(N2CCN(c3ccnc4cc(Cl)ccc34)CC2)cc1	-2%	?

# (listing goes on)
no.	SMILES	VACV Venus inh	Vaccinia mCherry
61	CC[C@]12c3[nH]c4ccc(OC)cc4c3CCN1C(=O)C(CC(=O)NCCN1CCOCC1)C[C@@H]2C(=O)N1CCN(C(=O)c2ccco2)CC1 (stereo not given in full)	-5%	i
62	O=C(NC1CCCCC1)c1c[nH]c2ccc(S(=O)(=O)Nc3ccccc3F)cc2c1=O	-7%	-5%
63	CCC1(c2ccccc2)NC(=O)N(CC(=O)N(C)CC(=O)Nc2ccc(F)c(F)c2F)C1=O (stereo not given)	-9%	-10%
64	NC(=O)CN1CCCC1=O	-15%&-8%	-2%
65	COc1ccc(OC)c(NC(=O)Cc2nn(C)c(=O)c3ccccc23)c1	-27%	-16%
66	Cc1cc(C(=O)Nc2cccc3cccnc23)ccc1[N+](=O)[O-]	-8%	-7%
67	Cc1ccc2ncnc(Oc3ncccc3NC(=O)C(C)(C)C)c2c1	21%	12%
68	S=C(Nc1ccc(Br)cc1)N1CCCC1	-15%	-13%
69	CCc1ccccc1NC(=O)Cn1c(=O)ccc2cc(S(=O)(=O)N3CCC(C)CC3)ccc21	-12%	-23%
70	CC(C)(C=O)Cc1cc(C(C)(C)C)c(O)c(C(C)(C)C)c1	-20%	-21%
71	C=C1C(O)C[C@@H](C(C)C)N(CC(C)C)S1(=O)=O (stereo not given in full)	-17%	i
72	CNc1nc(SCc2ccc(C)cc2)nc2c1CCCC2	-23%	.
73	O=S(=O)(O)C(c1ccccc1)C1(O)CCCCC1 (stereo not given)	-8%	i
74	CCOC(=O)CNC(=O)N1CCc2cc(S(=O)(=O)N3CCC(C)CC3)ccc21	-12%	-3%
75	CN(CC1COCCO1)C(=O)c1cnn(-c2ncc3c(n2)-c2ccccc2CC3)c1C1CC1 (stereo not given)	-28%	?
76	O=C(O)CCCN1C(=O)c2ccc(Oc3cccc([N+](=O)[O-])c3)cc2C1=O	-10%	i
77	Cc1ccc(Nc2nnc(C(C)(C)C)c(=O)n2N)cc1	-11%	1%
78	CCc1ccccc1NC(=O)CN1C(=O)CCSc2ccc(S(=O)(=O)N3CCCC3)cc21	-3%[7.34 µM]	-7%[7.34 µM]
79	CCOC(=O)c1cnc2c(c(C)nn2CC)c1NC1CC1	-14%	-16%
80	COc1ccc(C(=O)NCCc2nnc3ccc(SCC(=O)Nc4ccccc4F)nn23)cc1	-17%	i
81	CCCn1cc(CN2CCN(Cc3ccc(C)o3)C(CCO)C2)c(C)n1 (stereo not given)	-6%	i
82	CCn1c(=S)[nH]c2cc(S(=O)(=O)N3CCCCC3)ccc21	-17%	-24%
83	CN(CC1CCCO1)S(=O)(=O)c1ccc(C(=O)Nc2ccc3c(c2)OCO3)cc1 (stereo not given)	-4%	-13%
84	CCOC(=O)/C(=C\c1ccc(C)cc1)NC(=O)c1ccccc1	-7%	i
85	CCOC(=O)c1cnc2c(C(=O)OC)cccc2c1NCCN1CCOCC1	-13%	-12%
86	COC(=O)c1ccc(Oc2nc(C)cc(Oc3ccccc3)n2)cc1	7%	-10%
87	Cc1cc(/C=C2\C(=O)NC(=O)N(c3ccc(F)cc3)C2=O)c(C)n1-c1ccc(C(=O)O)cc1	19%	-11%
88	CC(C)c1ccc(NC(=O)COC(=O)Cn2cnc3c2c(=O)n(C)c(=O)n3C)cc1	-5%	i
89	COc1ccc(NC(=O)C(Cc2ccccc2)NS(=O)(=O)c2ccc3c(c2)oc(=O)n3C)c(OC)c1 (stereo not given)	-14%	-10%
90	CCCCN(C=O)c1c(CC)nc2c(OCc3ccc(Cl)cc3)cccn12	-15%	6%
91	COC(=O)c1ccc(NS(=O)(=O)c2ccccc2)o1	1%	1%
92	Cc1nnc(SCC(=O)c2ccc(C(C)C)cc2)s1	-16%	-3%
93	COC(=O)C[C@@H]1C=C[C@@H](NC(=O)CN(C)C)[C@@H](CO)O1	-18%	-10%
94	CCC(C)N(CCNC(=O)CC1Oc2ccc(C)cc2NC1=O)C1CCCCC1 (stereo not given)	-1%	-5%
95	CCOC(=O)c1[nH]c2ccccc2c1NC(=S)Nc1cccc(C)c1	-10%	i
96	Fc1cccc(COc2ccccc2C(=S)N2CCCC2)c1	-4%	6%
97	CSCCn1c(C(C)(C)C)cc(C(=O)O)c1C	-14%	-13%
98	CCCc1cc(=O)[nH]c(SCC(=O)Nc2ccc3c(c2)CCC3)n1	3%	-14%
99	COc1ccc(NC(=O)C(=O)NCC(c2ccco2)N2CCc3ccccc3C2)cc1OC (stereo not given)	?	-15%
100	CC(C)Sc1nc2ccc(Br)cc2[nH]1	-3%	-1%

# A draw from above in order of molar mass, highest first.
no.	SMILES	VACV Venus inh	Vaccinia mCherry
96	Fc1cccc(COc2ccccc2C(=S)N2CCCC2)c1	-4%	6%
91	COC(=O)c1ccc(NS(=O)(=O)c2ccccc2)o1	1%	1%
97	CSCCn1c(C(C)(C)C)cc(C(=O)O)c1C	-14%	-13%

# The list continues.
no.	SMILES	VACV Venus inh	Vaccinia mCherry
101	Cc1nccn1CCCNC(=O)c1nc(Cn2cc([N+](=O)[O-])cn2)no1	0%	4%
102	O=C1Cc2ccccc2C(=O)N1Cc1cccc(Cl)c1	-11%	-9%
103	CCN1CCN(Cc2cccc(Oc3ccc(Cl)cc3)c2)CC1	?	-1%
104	CCCc1cc2c(OC(=O)CC)c(-c3ccc(C(=O)OCC)o3)c(=O)oc2cc1OC	-8%	i
105	COc1ccc(C(=O)CSc2nnc(-c3ccco3)n2C)cc1	-1%	-6%
106	N#CC12CCCCC1CC1CCCCC1(C#N)N2N (stereo not given)	-5%	-16%
107	O=C(c1ccc(CNc2c(N3CCOCC3)c(=O)c2=O)cc1)N1CC=C(c2ccccc2)CC1	-6%	-9%
108	Clc1ccc(CSc2cnnc3ccccc23)cc1Cl	-12%	i
109	COC(=O)CSc1nc(N)nc(C)c1Cl	-7%	-25%
110	CCCCOCC(O)CN1CCN(C(C)=O)CC1 (stereo not given)	-8%	i
111	CC(=O)c1cc2c(cc1F)C(C)(C)CCC2(C)C	-19%	-1%
112	Cc1ccc(NC(=O)CCOc2ccccc2)cc1S(=O)(=O)Nc1ccccc1Cl	-17%	-3%
113	COc1ccc(/C=C/c2noc(-c3ccccc3O)n2)cc1	2%	-5%

# Compound activity deposited in PubChem by National Center for Advancing Translational Sciences (NCATS).
